NPYLR7 agonist = mosquito NPYLR7 agonism. activation, % at 10 µM. HEK293T NPYLR7/Galpha15, GCaMP6s calcium fluorescence. AID 1259423. 270,000 tested, 0.15% active; in the data active = activation above about 40%;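 also: 0% = vehicle and 100% = reference agonist at the receptor; some compounds past the cut are filed as inactive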
NPYLR7 agonist max-min = further read-out of NPYLR7 agonist, marked with its call; activation, %; measured here: Max-Min RFU normalised activation; some inactives read as strong as hits;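 span of the calcium signal over five minutes; 0% = vehicle and 100% = native peptide agonist; compound fluorescence can raise it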
Active calls of the source: *; & = joins results of further samples. Only part of the results is shown; count on the stated rates, not on these rows.

Cc1cccc(NC(=O)CC2S/C(=N/N=C\c3cccs3)NC2=O)c1C (centres undefined) was read as NPYLR7 agonist 1.0 and NPYLR7 agonist max-min 2.2.
`O=C(NCC(c1cccnc1)N1CCOCC1)c1ccc(Cl)s1` (centres undefined) gave NPYLR7 agonist 6.5 and NPYLR7 agonist max-min 4.7.
NC(=O)C1CCCN(Cc2ccccc2NC(=O)c2ccc(F)c(F)c2)C1 (centres undefined) was read as NPYLR7 agonist 7.5 and NPYLR7 agonist max-min 4.9.
Screening CN=c1scc(-c2ccc(Cl)cc2Cl)n1N=Cc1cc(OC)c(O)c(OC)c1 returned NPYLR7 agonist -2.8 and NPYLR7 agonist max-min -15.1.
`Cc1ccc(-c2nccn2-c2cccc(-c3nnc(C)s3)c2)o1` gave NPYLR7 agonist -5.3 and NPYLR7 agonist max-min -5.6.
`O=C(CCNCc1ccccn1)NCc1ccccc1` gave NPYLR7 agonist -0.5 and NPYLR7 agonist max-min -2.7.
Cc1cccc(-c2c(NC(=O)c3ccco3)oc3c(C)cccc3c2=O)c1 was read as NPYLR7 agonist 5.9 and NPYLR7 agonist max-min 2.0.
Screening Cc1c(C(=O)N2CCN(S(=O)(=O)c3ccccc3C(F)(F)F)CC2)cnn1C returned NPYLR7 agonist -1.0 and NPYLR7 agonist max-min 3.8.
`CC(C)c1[nH]n(-c2cccc(F)c2)c(=O)c1-c1ccc(N)cc1` gave NPYLR7 agonist -8.7 and NPYLR7 agonist max-min -5.8.
Screening CCCCCc1ccc(C(=O)N(CCCOCC)CC(=O)N2CCc3sccc3C2c2ccc(Cl)cc2)cc1 (centres undefined) returned NPYLR7 agonist 0.8 and NPYLR7 agonist max-min 14.6.
CCSc1nnc2c(n1)OC(c1ccc(-c3ccc(Cl)cc3)o1)Nc1ccccc1-2 (centres undefined) was read as NPYLR7 agonist -0.2 and NPYLR7 agonist max-min -5.9.
`COc1ccc(-n2c(-c3ccccc3)c[n+]3c2CCC3)cc1` gave NPYLR7 agonist 1.2 and NPYLR7 agonist max-min 1.3.
Screening Cc1cc(C)n(CC(C)NC(=O)c2cc(COc3ccccc3)[nH]n2)n1 (centres undefined) returned NPYLR7 agonist 5.3 and NPYLR7 agonist max-min 5.1.
CC(Sc1nnc(CC2CCS(=O)(=O)C2)n1C)c1cccc(F)c1 (centres undefined) was read as NPYLR7 agonist -6.8 and NPYLR7 agonist max-min -8.2.
Cc1ccc(NC(=O)CN2CCCC(OCc3ccccn3)C2)cc1C (centres undefined) was read as NPYLR7 agonist -6.0 and NPYLR7 agonist max-min -6.9.
For O=C(C1CCC1)N1CCN(C(C(=O)N2CCc3ccccc3C2)C2CCCC2)CC1 (centres undefined) the results were NPYLR7 agonist -5.6 and NPYLR7 agonist max-min -2.8.
For Cc1ccc2ccc(S(=O)(=O)n3ccnc3C)cc2c1 the results were NPYLR7 agonist 3.4 and NPYLR7 agonist max-min 1.8.
Screening COc1cccc(C(=O)N2CCN(C(=O)c3cn(Cc4ccc(F)cc4)nn3)CC2)c1 returned NPYLR7 agonist 11.3 and NPYLR7 agonist max-min 3.2.
Screening CC1(c2ccccc2F)NC(=O)c2ccccc2N1 (centres undefined) returned NPYLR7 agonist 10.9 and NPYLR7 agonist max-min 6.6.
CC(CC(=O)NCC1CCCC1O)NC(=O)c1ccccc1 (centres undefined) was read as NPYLR7 agonist 0.1 and NPYLR7 agonist max-min -2.4.
For Cc1ccc(F)c(S(=O)(=O)NC(=O)C2(C)CCN2C(=O)CC2CCCCC2)c1 (centres undefined) the results were NPYLR7 agonist 1.4 and NPYLR7 agonist max-min 1.5.
`NC(=O)c1cc2ccc(O)cc2oc1=Nc1ccc(F)cc1` gave NPYLR7 agonist 4.0 and NPYLR7 agonist max-min -2.4.
CC1CN(C)c2ccccc2N(Cc2cc(=O)c(O)co2)C1 (centres undefined) was read as NPYLR7 agonist -24.6 and NPYLR7 agonist max-min -23.4.
Cc1ccc(Cc2nsc(N3CCCN(C(=O)COc4ccc(Cl)cc4)CC3)n2)cc1 was read as NPYLR7 agonist 13.0 and NPYLR7 agonist max-min 13.1.
CC1CCN(C(=S)c2ccc(-c3cccc([N+](=O)[O-])c3)o2)CC1 was read as NPYLR7 agonist 3.2 and NPYLR7 agonist max-min 4.8.
`Cc1ccnc(NC(=O)Cn2nc([N+](=O)[O-])c(Br)c2C)c1` gave NPYLR7 agonist 3.2 and NPYLR7 agonist max-min 0.8.
Screening Cc1ccc(C(NC(=O)C2CCS(=O)(=O)C2)C2CC2)cc1 (centres undefined) returned NPYLR7 agonist 11.0 and NPYLR7 agonist max-min 8.6.
For Cc1cc(NCCCN(C)C)n2nc(C)c(-c3ccc(Cl)cc3)c2n1 the results were NPYLR7 agonist -1.5 and NPYLR7 agonist max-min -4.9.
`CC(NCC1CNc2ccnn2C1)c1cc2ccccc2o1` (centres undefined) gave NPYLR7 agonist 2.0 and NPYLR7 agonist max-min 2.7.
`Cc1ccc(C)c(C(C)CNC(=O)c2cnccn2)c1` (centres undefined) gave NPYLR7 agonist -1.4 and NPYLR7 agonist max-min -3.5.
`CC(C)Cn1c(CN(Cc2ccccn2)CC2CCCO2)cnc1S(C)(=O)=O` (centres undefined) gave NPYLR7 agonist 18.5 and NPYLR7 agonist max-min 8.1.
Screening O=C(c1cc(Nc2ccc(N3CCOCC3)cc2)ncn1)N1CCN(c2ccccn2)CC1 returned NPYLR7 agonist -7.2 and NPYLR7 agonist max-min -10.7.
`CC(C)(C)n1ncc2c(=O)n(NC(=O)CC3CCCCC3)cnc21` gave NPYLR7 agonist 5.0 and NPYLR7 agonist max-min 2.8.
Screening O=C(Nc1ccc(N2CCOCC2)nc1)NC1CCc2ccccc21 (centres undefined) returned NPYLR7 agonist 0.6 and NPYLR7 agonist max-min -0.3.
Screening COCCn1c(C)cc(O)c(C(c2ccncc2)N2CCCCC2)c1=O (centres undefined) returned NPYLR7 agonist 4.4 and NPYLR7 agonist max-min 4.2.
For CC(C)(C)NC(=O)Cn1c(=O)n(-c2ccccc2)c(=O)c2oc3ccccc3c21 the results were NPYLR7 agonist -6.1 and NPYLR7 agonist max-min -9.1.
Screening O=C(O)c1cnc2c(c1)n(CCN1CCCC1)c(=O)n2CCc1ccccn1 returned NPYLR7 agonist 2.7 and NPYLR7 agonist max-min -1.3.
`CCOC(=O)c1ccc(NC(=O)N2CCC3(CC2)NC(=O)Cc2ccccc23)cc1` gave NPYLR7 agonist 13.1 and NPYLR7 agonist max-min 13.3.
For O=C1NC2(CCN(C(=O)C3CCC3)CC2)Nc2ccc(Cl)cc21 the results were NPYLR7 agonist 6.5 and NPYLR7 agonist max-min 31.1.
O=C(NC1CCCc2ccccc21)c1ccccc1N1CCC(NC(=O)C2CC2)CC1 (centres undefined) was read as NPYLR7 agonist -0.6 and NPYLR7 agonist max-min 21.7.

Brought forward from above: seven compounds, followed by the next part.
Screening O=C(Nc1ccc(N2CCOCC2)nc1)NC1CCc2ccccc21 (centres undefined) returned NPYLR7 agonist 0.6 and NPYLR7 agonist max-min -0.3.
Screening COCCn1c(C)cc(O)c(C(c2ccncc2)N2CCCCC2)c1=O (centres undefined) returned NPYLR7 agonist 4.4 and NPYLR7 agonist max-min 4.2.
For CC(C)(C)NC(=O)Cn1c(=O)n(-c2ccccc2)c(=O)c2oc3ccccc3c21 the results were NPYLR7 agonist -6.1 and NPYLR7 agonist max-min -9.1.
Screening O=C(O)c1cnc2c(c1)n(CCN1CCCC1)c(=O)n2CCc1ccccn1 returned NPYLR7 agonist 2.7 and NPYLR7 agonist max-min -1.3.
`CCOC(=O)c1ccc(NC(=O)N2CCC3(CC2)NC(=O)Cc2ccccc23)cc1` gave NPYLR7 agonist 13.1 and NPYLR7 agonist max-min 13.3.
For O=C1NC2(CCN(C(=O)C3CCC3)CC2)Nc2ccc(Cl)cc21 the results were NPYLR7 agonist 6.5 and NPYLR7 agonist max-min 31.1.
O=C(NC1CCCc2ccccc21)c1ccccc1N1CCC(NC(=O)C2CC2)CC1 (centres undefined) was read as NPYLR7 agonist -0.6 and NPYLR7 agonist max-min 21.7.
For CCCCCN(C(=O)NC(=O)NC(C)CC)S(C)(=O)=O (centres undefined) the results were NPYLR7 agonist -2.7 and NPYLR7 agonist max-min -7.5.
Screening Cc1cc(N2CCC(Nc3ncccn3)CC2)nc(-c2cccnc2)n1 returned NPYLR7 agonist 12.3 and NPYLR7 agonist max-min 0.9.
NC(=O)N1CCCN(CCOc2cc(Cl)cc(Cl)c2)CC1 was read as NPYLR7 agonist -23.6 and NPYLR7 agonist max-min -24.3.
`CC(=O)c1ccc(NC(=O)CSc2nc3ccccc3s2)cc1` gave NPYLR7 agonist 0.3 and NPYLR7 agonist max-min -1.0.
For Cc1cc(C)c2c(n1)sc1c(=O)n(-c3cccc(C(F)(F)F)c3)cnc12 the results were NPYLR7 agonist 5.1 and NPYLR7 agonist max-min 4.0.
`C=CCSc1ccccc1NC(=O)Cn1nnc(-c2ccc(Cl)cc2)n1` gave NPYLR7 agonist -2.0 and NPYLR7 agonist max-min 19.7.
Cc1nc2ncc3c(n2n1)CC=NNC3=O was read as NPYLR7 agonist -2.1 and NPYLR7 agonist max-min -7.4.
Screening Cc1ccc(-n2nnnc2SCc2nc3ccsc3c(=O)[nH]2)cc1 returned NPYLR7 agonist 9.8 and NPYLR7 agonist max-min 0.6.
`Cc1cccc(NC(=O)CCNC(=O)c2ccc3c(c2)nnn3C)c1` gave NPYLR7 agonist 44.0 and NPYLR7 agonist max-min 28.7.
For COc1ccc(CCN=C(C)c2c(C(F)(F)F)[nH]n(-c3nc4ccccc4s3)c2=O)cc1OC the results were NPYLR7 agonist -1.5 and NPYLR7 agonist max-min -7.7.
CN(Cc1nnc2n1CCC2)C(=O)[C@@H]1CCCN1C(=O)c1ccco1 was read as NPYLR7 agonist 0.2 and NPYLR7 agonist max-min -0.9.
Screening Cc1ccsc1-c1cn(CCCn2ncc3ccccc32)nn1 returned NPYLR7 agonist 0.3 and NPYLR7 agonist max-min -2.4.
`COc1ccc(C2=N/C(=C\C=C\c3ccccc3)C(=O)O2)c(Br)c1` gave NPYLR7 agonist -11.4 and NPYLR7 agonist max-min -12.4.
For O=C(Cc1ccccc1)NCc1nnc(SCC(=O)c2ccccc2)n1-c1cccc(C(F)(F)F)c1 the results were NPYLR7 agonist -6.8 and NPYLR7 agonist max-min -1.0.
For Cc1ccc(C(=O)NCC(C)(C)CNC(=O)c2ccc(C)o2)o1 the results were NPYLR7 agonist 0.7 and NPYLR7 agonist max-min 7.8.
For CCN(CC)CCCC(C)NC(=O)c1cc(-c2cccs2)nn1-c1cccc([N+](=O)[O-])c1 (centres undefined) the results were NPYLR7 agonist -3.9 and NPYLR7 agonist max-min -1.8.
For CCc1nnc(CNC(=O)c2cc(COc3cccc(F)c3)[nH]n2)s1 the results were NPYLR7 agonist -0.9 and NPYLR7 agonist max-min -5.6.
For Cc1ccc2nc(C)c(NC(=O)c3sc(-c4ccccc4)nc3C)c(=O)n2c1 the results were NPYLR7 agonist 3.6 and NPYLR7 agonist max-min 1.5.
`O=C(CN1C(=O)C2(OCCO2)c2ccccc21)c1ccc(Cl)cc1` gave NPYLR7 agonist 3.3 and NPYLR7 agonist max-min 1.1.
CN(c1cc(-c2ccccc2)nc(SCc2cccc(C(=O)NCc3cccnc3)c2)n1)C1CCCCC1 was read as NPYLR7 agonist -1.1 and NPYLR7 agonist max-min 0.7.
CCOC(=O)C1=C(C)C(c2ccc(Cl)cc2)NC(=S)N1 (centres undefined) was read as NPYLR7 agonist -5.4 and NPYLR7 agonist max-min -6.1.
`CC(C)C(=O)N1CCCC(Cn2ccnc2-c2ccc(-c3ccn[nH]3)o2)C1` (centres undefined) gave NPYLR7 agonist 5.2 and NPYLR7 agonist max-min 3.6.
O=C(N[C@H](CO)Cc1ccccc1)c1cccnc1Oc1ccc(Cl)cc1 was read as NPYLR7 agonist -10.3 and NPYLR7 agonist max-min -11.6.
CC1CCCCN1S(=O)(=O)c1cc(C(=O)O)cs1 (centres undefined) was read as NPYLR7 agonist -4.7&0.3 and NPYLR7 agonist max-min -4.0&0.0.
COc1ccc(/C=C2\N=C(c3cccc(C)c3)OC2=O)cc1OC(C)=O was read as NPYLR7 agonist -0.9 and NPYLR7 agonist max-min -4.5.
For Oc1ccc(CCC2CCCCN2Cc2ccncc2)cc1 (centres undefined) the results were NPYLR7 agonist 0.4 and NPYLR7 agonist max-min -0.9.
`COc1cccc(CO[C@]2(C(=O)NCC3CC3)CC(OCC3CC3)[C@@H]3OC(C)(C)O[C@@H]3C2)c1` (some centres undefined) gave NPYLR7 agonist 8.2 and NPYLR7 agonist max-min 15.5.
Screening Cc1nc(-c2ccc(CNC(=O)NCc3ccccc3C)o2)cs1 returned NPYLR7 agonist 14.6 and NPYLR7 agonist max-min 11.6.
`CCc1ccc(-n2ccc(=O)c(-c3nc(-c4ccccc4Br)no3)n2)cc1` gave NPYLR7 agonist -7.3 and NPYLR7 agonist max-min -8.9.
Screening CC(=O)c1c(C)oc2ccc(N(C(=O)c3ccccc3)S(=O)(=O)c3ccccc3)cc12 returned NPYLR7 agonist 1.1 and NPYLR7 agonist max-min 0.9.
COc1ccccc1CN1C[C@@H]2C[C@@H](c3ccc(SC)cc3)N3CCC[C@@]23C1=O was read as NPYLR7 agonist -2.5 and NPYLR7 agonist max-min -17.3.
CC1c2ccsc2CCN1C(=O)C1CCN(S(=O)(=O)c2ccc(C#N)cc2)CC1 (centres undefined) was read as NPYLR7 agonist -0.1 and NPYLR7 agonist max-min -2.5.
COCC1CCN(c2nc3nonc3nc2NCc2cccs2)CC1 was read as NPYLR7 agonist 9.6 and NPYLR7 agonist max-min 1.9.
Cc1nonc1C1CCCN1c1ccc(-c2nc(C3CC3)no2)cn1 (centres undefined) was read as NPYLR7 agonist 0.2 and NPYLR7 agonist max-min 0.0.
COC(=O)Cn1c(=O)c2c(OC)c(C)cnc2n(C)c1=O was read as NPYLR7 agonist 2.3 and NPYLR7 agonist max-min 0.1.
For COc1cc(N2CCN(CC(C)(C)N3CCOCC3)CC2)nc(OC)n1 the results were NPYLR7 agonist 26.0 and NPYLR7 agonist max-min 16.4.
